rRNA inh HTS – reduced GFP signal of wild-type E. coli, primary screen, bacterial rRNA inhibitor project, GFP/RFP fluorescence, OD600, single point; E. coli WT GFP vs humanized-ribosome RFP mutants, 24 h; active compounds read low; DMSO median 0, no signal -100; GFP signal change (wild-type ribosome), % (no concentration beside the values); 350,000 compounds, 1.6% hits;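 active means significant combined selectivity score with lowered wild-type GFP, culture density cut under 30%, mutant RFP and density less affected; inactive means any of these conditions unmet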; further: one replicate is shown; some compounds called inactive have numbers as strong as hits
rRNA inh HTS OD600 – second read-out of rRNA inh HTS, no call of its own (marks repeat the call); OD600 change, %; measured here: OD600 growth;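 optical density of the mix in the first replicate; 0 = DMSO median and -100 = no signal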
rRNA inh HTS RFP – recorded beside rRNA inh HTS, whose call it bears; RFP signal change, %; measured here: RFP humanized mutant strains;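 first replicate; 0 = DMSO median and -100 = no signal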
* = called active by the depositor. The list is partial; the hit share may differ from the screen's.

Start of the listing, in advance:
SMILES	rRNA inh HTS	rRNA inh HTS OD600	rRNA inh HTS RFP
C[C@@H]1CN([C@@H](C)CO)C(=O)c2cc(C#Cc3cccc(F)c3)cnc2O[C@H]1CN(C)C(=O)C1CCC1	0	-11	6.5
COc1ccc(-c2ccc3c(c2)[C@@H]2[C@@H](CCN2C(=O)NC2CCCCC2)[C@H](CO)N3C)cc1	-5	-7	2.5
C[C@@H]1CN([C@@H](C)CO)C(=O)Cc2cc(NC(=O)c3ccncc3)ccc2O[C@H]1CN(C)Cc1ccncc1	1	11	1.7
C[C@H](CO)N1C[C@H](C)[C@H](CN(C)Cc2ccncc2)Oc2ccc(NC(=O)CCCCCC(=O)Nc3ccccc3N)cc2C1=O	2	2	-0.6
CO[C@@H]1CN(C)C(=O)c2ccc(NS(=O)(=O)c3cn(C)cn3)cc2OC[C@@H](C)N(C)C[C@H]1C	1	0	0.3
Cc1noc(C)c1NC(=O)Nc1cccc2c1O[C@@H](CN(C)Cc1ccc3c(c1)OCO3)[C@@H](C)CN([C@@H](C)CO)C2=O	-2	4	-1.5
C[C@@H]1CN([C@@H](C)CO)C(=O)c2cc(NC(=O)c3ccncc3)ccc2O[C@@H]1CN(C)S(=O)(=O)c1ccc(Cl)cc1	1	-4	2.4
CN(C)CC(=O)N1CCCCN2[C@H](C1)[C@H](c1ccc(-c3cccnc3)cc1)[C@@H]2CO	5	26	-0.5
C/C=C/c1ccccc1[C@H]1[C@H](C#N)N(C(=O)CN2CCOCC2)[C@H]1CO	7	17	0.5
Cc1ccc(S(=O)(=O)N(C)C[C@@H]2OCCCC[C@H](C)Oc3ccc(NC(=O)CCC(F)(F)F)cc3C(=O)N([C@@H](C)CO)C[C@@H]2C)cc1	-2	-6	-0.7

The whole of this part, from the first entry:
SMILES	rRNA inh HTS	rRNA inh HTS OD600	rRNA inh HTS RFP
C[C@@H]1CN([C@@H](C)CO)C(=O)c2cc(C#Cc3cccc(F)c3)cnc2O[C@H]1CN(C)C(=O)C1CCC1	0	-11	6.5
COc1ccc(-c2ccc3c(c2)[C@@H]2[C@@H](CCN2C(=O)NC2CCCCC2)[C@H](CO)N3C)cc1	-5	-7	2.5
C[C@@H]1CN([C@@H](C)CO)C(=O)Cc2cc(NC(=O)c3ccncc3)ccc2O[C@H]1CN(C)Cc1ccncc1	1	11	1.7
C[C@H](CO)N1C[C@H](C)[C@H](CN(C)Cc2ccncc2)Oc2ccc(NC(=O)CCCCCC(=O)Nc3ccccc3N)cc2C1=O	2	2	-0.6
CO[C@@H]1CN(C)C(=O)c2ccc(NS(=O)(=O)c3cn(C)cn3)cc2OC[C@@H](C)N(C)C[C@H]1C	1	0	0.3
Cc1noc(C)c1NC(=O)Nc1cccc2c1O[C@@H](CN(C)Cc1ccc3c(c1)OCO3)[C@@H](C)CN([C@@H](C)CO)C2=O	-2	4	-1.5
C[C@@H]1CN([C@@H](C)CO)C(=O)c2cc(NC(=O)c3ccncc3)ccc2O[C@@H]1CN(C)S(=O)(=O)c1ccc(Cl)cc1	1	-4	2.4
CN(C)CC(=O)N1CCCCN2[C@H](C1)[C@H](c1ccc(-c3cccnc3)cc1)[C@@H]2CO	5	26	-0.5
C/C=C/c1ccccc1[C@H]1[C@H](C#N)N(C(=O)CN2CCOCC2)[C@H]1CO	7	17	0.5
Cc1ccc(S(=O)(=O)N(C)C[C@@H]2OCCCC[C@H](C)Oc3ccc(NC(=O)CCC(F)(F)F)cc3C(=O)N([C@@H](C)CO)C[C@@H]2C)cc1	-2	-6	-0.7
OC[C@@H]1[C@@H](c2ccc(Br)cc2)[C@H]2CN(Cc3ccccn3)CCCCN12	2	15	-4.6
CCC(=O)N(C)C[C@@H]1Oc2cc(C#CC3CCCCC3)ccc2S(=O)(=O)N([C@@H](C)CO)C[C@H]1C	-11	-40	8.5
Cc1ccccc1CN1C(=O)CSCC1(C)C(=O)Nc1c(C)cccc1C (stereo unspecified)	-4	8	2.1
C[C@H]1CN([C@@H](C)CO)C(=O)Cc2cc(NS(=O)(=O)c3ccc(F)cc3)ccc2O[C@H]1CN(C)C	1	6	-1.0
Cc1noc(C)c1NC(=O)N(C)C[C@@H]1Oc2ncc(C#CCN(C)C)cc2C(=O)N([C@@H](C)CO)C[C@H]1C	5	7	-0.5
Cc1ccccc1CC(=O)Nc1ccc2c(c1)c(=O)n(C)n2-c1ccccc1F	-1	-23	0.3
COc1cccc(CN2[C@@H]3CNC[C@H]2[C@H]3c2ccc(-c3ccccc3OC)cc2)c1	6	-4	2.6
CCCNC(=O)N(C)C[C@@H]1Oc2cc(C3=CCCC3)ccc2S(=O)(=O)N([C@@H](C)CO)C[C@H]1C	0	-19	-2.0
COc1ccc(-c2cc(NC=O)c3ncc(-c4cccc(C(=O)NCCN(C)C)c4)n3c2)c(OC)c1	20	16	34
C[C@H](CO)N1C[C@H](C)[C@H](CN(C)Cc2ccc3c(c2)OCO3)Oc2ccc(NC(=O)Nc3cccc4ccccc34)cc2CC1=O	-6	-3	6.4
O=C(Nc1nnc(-c2ccco2)o1)c1ccc(Br)s1	-64	-79	-20
CO[C@@H]1CN(C)C(=O)c2cc(NC(=O)c3ccccc3F)ccc2OC[C@@H](C)N(C)C[C@@H]1C	-2	-1	-1.0
N#C[C@@H]1[C@H](c2ccc(C#Cc3ccccc3F)cc2)[C@H](CO)N1C(=O)C1CCOCC1	-5	-31	9.4
COc1cccc(NC(=O)N[C@@H]2C=C[C@@H](CC(=O)N3CCN(C)CC3)O[C@H]2CO)c1	1	2	-1.1
C[C@@H]1CCCCO[C@H](CN(C)C(=O)Cc2ccccc2)[C@@H](C)CN([C@H](C)CO)C(=O)c2cc(NC(=O)CCC(F)(F)F)ccc2O1	5	16	-1.0

The list goes on.
SMILES	rRNA inh HTS	rRNA inh HTS OD600	rRNA inh HTS RFP
O=C(C[C@H]1CC[C@H]2[C@@H](COC[C@H](O)CN2C(=O)Nc2ccc3c(c2)OCO3)O1)N1CCN(c2ccccc2)CC1	4	15	1.6
CCOC(=O)C1=C[C@@H](C2CCCC2)N(S(=O)(=O)c2ccc([N+](=O)[O-])cc2)[C@H]1c1ccccc1	5	8	-0.3
C[C@H]1CN([C@@H](C)CO)C(=O)c2cc(NC(=O)Cn3cnnn3)ccc2O[C@H]1CN(C)C(=O)Nc1ccc(F)cc1	4	-1	1.4
C[C@@H]1CN([C@H](C)CO)C(=O)c2cccc(NC(=O)Nc3ccc4c(c3)OCO4)c2O[C@H]1CN(C)Cc1ccc(Cl)c(Cl)c1	-5	-10	1.0
COc1ccccc1CN(C)C[C@H]1OCc2ccccc2-c2c(n(C)c3ccccc23)C(=O)N([C@@H](C)CO)C[C@@H]1C	5	-4	15
O=C(Nc1cc(F)ccc1F)N1CCCCN2[C@H](CO)[C@H](c3ccc(-c4cccnc4)cc3)[C@@H]2C1	-4	0	0.1
C[C@H](CO)N1C[C@H](C)[C@@H](CN(C)C(=O)Nc2ccccc2)OCCCC[C@H](C)Oc2ccc(NC(=O)Nc3cccc4ccccc34)cc2C1=O	1	10	0.7
COc1ccc(CCN2C(=O)c3ccccc3C2c2nnnn2C(C)C)cc1OC (stereo unspecified)	-3	-4	-0.5
C[C@@H]1CN([C@@H](C)CO)C(=O)c2cc(NC(=O)Cc3ccccc3)ccc2O[C@@H](C)CCCCO[C@H]1CN(C)CC1CCCCC1	5	-3	1.6
COc1ccc(NC(=O)N[C@@H]2CC[C@H](CCNC(=O)CN3CCOCC3)O[C@@H]2CO)cc1	5	11	0.5
O=C(C[C@H]1CC[C@@H](NC(=O)c2cccnc2)[C@@H](CO)O1)NCc1ccncn1	3	3	-0.6
C[C@H](CO)N1C[C@H](C)[C@H](CN(C)Cc2ccc(Cl)c(Cl)c2)Oc2ccc(NC(=O)C3CCCCC3)cc2C1=O	-1	-11	1.4
CCCN1[C@@H]2c3ccc(-c4ccc(F)cc4)c(=O)n3C[C@H]1[C@H](CO)[C@H]2C(=O)NCCOC	1	-1	-2.5
Cc1cc(C)n(CCNC(=O)[C@H]2O[C@@H](n3ccc(=O)[nH]c3=O)[C@H](O)[C@@H]2O)n1	7	18	8.8
C[C@@H]1CN([C@@H](C)CO)C(=O)c2cc(NC(=O)Nc3ccc(F)cc3)ccc2O[C@H]1CN(C)Cc1ccc(C(=O)O)cc1	4	0	-0.9
C[C@H](O)C#Cc1cnc2c(c1)C(=O)N([C@H](C)CO)C[C@H](C)[C@H](CN(C)C(=O)Nc1ccc(F)cc1)O2	3	5	-3.3
C[C@H]1CCCCO[C@H](CN(C)C(=O)Nc2ccccc2)[C@@H](C)CN([C@@H](C)CO)C(=O)c2cc(NC(=O)C3CCCCC3)ccc2O1	-2	-4	1.1
CSc1ccc(OC2(C)CCN(Cc3ccccc3)C2)cc1 (stereo unspecified)	0	-8	0.2
CC=Cc1ccc2n(c1=O)C[C@@H]1[C@@H](CO)[C@H](C(=O)N[C@@H](C)c3ccccc3)[C@H]2N1CC (mixture of isomers)	5	11	-0.2
COC(=O)c1ccc2nc(-c3ccc(F)cc3)c(Cc3ccc(C)cc3)n2c1	-10	-6	0.6
Cc1ccc(NC(=O)Nc2ccc3c(c2)C(=O)N(C)[C@@H]2CC[C@H](CC(=O)NCC(F)(F)F)O[C@@H]2CO3)cc1	-8	-24	0.1
C[C@H]1CN([C@@H](C)CO)C(=O)Cc2cc(NS(=O)(=O)c3ccccc3)ccc2O[C@@H]1CN(C)C(=O)Nc1cccc2ccccc12	-2	-5	-3.1
C[C@H](CO)N1C[C@H](C)[C@H](CN(C)CC2CC2)OCCCC[C@H](C)Oc2ccc(NC(=O)Cc3ccccc3)cc2C1=O	1	-6	0.7
O=C(C[C@H]1C[C@H]2c3cc(NC(=O)NC4CCCC4)ccc3O[C@H]2[C@@H](CO)O1)NCc1cc(F)ccc1F	-1	-1	-0.9
C[C@H](CO)N1C[C@H](C)[C@H](CN(C)C(=O)Nc2ccc(C(F)(F)F)cc2)Oc2ccc(NC(=O)C3CCCCC3)cc2CC1=O	-3	-13	1.9

Next section.
SMILES	rRNA inh HTS	rRNA inh HTS OD600	rRNA inh HTS RFP
Cc1ccc(S(=O)(=O)N[C@@H](C)CO)cc1	7	6	0.8
COCC#Cc1ccc2c(c1)O[C@H](CN(C)Cc1ccccn1)[C@@H](C)CN([C@H](C)CO)S2(=O)=O	-7	-11	0.9
O=C(N[C@@H]1CC[C@@H](CCn2cc(-c3cccnc3)nn2)O[C@H]1CO)c1ccccc1F	1	-1	-3.1
COc1ccc(S(=O)(=O)Nc2ccc3c(c2)C(=O)N([C@H](C)CO)C[C@H](C)[C@H](CN(C)CC2CCCCC2)O3)cc1	2	-7	-3.0
CNC(=O)C[C@H]1CC[C@H]2[C@@H](COc3ccc(NC(=O)c4ccc(C#N)cc4)cc3C(=O)N2C)O1	0	-2	-3.5
CCCNC(=O)N1C[C@H](C)[C@H](OC)CN(C)C(=O)c2cc(NS(=O)(=O)CC(F)(F)F)ccc2OC[C@@H]1C	1	3	-0.6
COc1ccccc1C#Cc1ccc([C@@H]2[C@@H](CO)N3CCCCN(CCC(F)(F)F)C[C@@H]23)cc1	-57	-74	-8.7
COc1ccc(CN(C)C[C@@H]2OCCCC[C@@H](C)Oc3ccc(NS(=O)(=O)c4ccc(F)cc4)cc3C(=O)N([C@@H](C)CO)C[C@H]2C)cc1	3	-9	0.2
CO[C@H]1CN(C)C(=O)c2cc(NC(=O)C3CCCC3)ccc2OC[C@H](C)N(C)C[C@H]1C	1	1	-1.4
Cc1ccc(S(=O)(=O)Nc2ccc3c(c2)CC(=O)N([C@@H](C)CO)C[C@@H](C)[C@H](CN(C)C(=O)Nc2ccc(F)cc2)O3)cc1	-1	-11	-1.0
C[C@@H](NC(=O)[C@@H]1CCCN1C(=O)[C@@H]1CCCN1C(=O)c1cccc(Cl)c1)c1ccccc1	3	9	1.5
C[C@H](CO)N1C[C@H](C)[C@H](CN(C)Cc2ccc3c(c2)OCO3)OCCCC[C@H](C)Oc2ccc(NS(=O)(=O)c3ccc(Cl)cc3)cc2C1=O	-24	-59	30
CCC(C(=O)NC(C)(C)C)n1c(-c2ccc3c(c2)OCO3)nc2ccccc21 (stereo unspecified)	3	8	-2.1
Cc1cc(NC(=O)c2ccc3sc([C@@H]4O[C@H](CO)[C@H](O)[C@H](O)[C@H]4O)nc3c2)n(C)n1	-5	-6	1.2
C[C@@H]1CN([C@H](C)CO)C(=O)c2cccc(NC(=O)Nc3cccc4ccccc34)c2O[C@@H]1CN(C)Cc1ccc(C(F)(F)F)cc1	-6	-9	1.4
C[C@H](CO)N1C[C@H](C)[C@H](CN(C)CC2CC2)Oc2ccc(NC(=O)CCN3CCOCC3)cc2CC1=O	0	-5	-1.5
C[C@H](CO)N1C[C@H](C)[C@H](CN(C)Cc2ccc(Cl)c(Cl)c2)Oc2ccc(NC(=O)C3CCCCC3)cc2CC1=O	0	-5	-0.8
O=C(N[C@@H]1CC[C@H](CC(=O)N2CCc3ccccc3C2)O[C@@H]1CO)C1CC1	-1	-4	-2.3
COc1ccc(C#Cc2ccc([C@H]3[C@H](CO)N4CCCCN(C(=O)Nc5ccc(F)cc5)C[C@@H]34)cc2)cc1	-53	-70	-5.4
C[C@H](CO)N1C[C@H](C)[C@H](CN(C)CC2CC2)Oc2ccc(NC(=O)CCCCCC(=O)Nc3ccccc3N)cc2CC1=O	3	15	0.6
CO[C@H]1CN(C)C(=O)c2ccc(NC(=O)c3cnccn3)cc2OC[C@H](C)N(C(C)=O)C[C@H]1C	3	3	-1.3
C[C@H]1CN([C@@H](C)CO)S(=O)(=O)c2ccc(C#CC3CC3)cc2O[C@@H]1CN(C)C(=O)c1ccncc1	-9	-13	1.4
CO[C@@H]1CN(C)C(=O)c2cc(NC(C)=O)ccc2OC[C@H](C)N(CC2CC2)C[C@H]1C	-1	-3	0.4
CO[C@H]1CN(C)C(=O)c2ccc(NC(=O)C3CCCC3)cc2OC[C@@H](C)NC[C@@H]1C	2	4	-3.7
C[C@@H]1CN([C@H](C)CO)C(=O)c2cc(NC(=O)c3ccccc3)ccc2O[C@@H](C)CCCCO[C@@H]1CN(C)C(=O)Nc1cccc2ccccc12	-3	5	-4.9
